Env fusion inh: HIV envelope-mediated fusion inhibition. inhibition, % at 12.3 µM. hit rate 1.1% among 360,000. HeLa-JRFL Env/CEM21 cell fusion, luciferase;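 active means mean replicate inhibition score of at least 50 and every replicate individually at or above 50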;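 further: 0% = plate neutral controls and 100% = maraviroc near 300 nM; one replicate is shown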
Yeast UUG start: alters start codon recognition fidelity in yeast; S. cerevisiae UUG-firefly luciferase reporter, luminescence/redox ratio; AID 602363; hit rate 0.13% among 350,000; activity score, % at 18.7 µM;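 active means replicate mean at a twofold rise or more, about +100% in these data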;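 further: firefly luciferase made from a UUG start codon reports start codon fidelity; reporter light over untreated wells divided by growth signal over untreated wells; some hits fall short of that in this replicate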
An asterisk follows results filed as active; & = joins results of further samples; [ ] = another dose, or the depositor's remark.

SMILES | Env fusion inh | Yeast UUG start
C[C@@H]1CCCCO[C@H](CN(C)Cc2ccncc2)[C@@H](C)CN([C@H](C)CO)C(=O)c2cc(NC(=O)Nc3cccc4ccccc34)ccc2O1 | 3.2[16.7 µM] | -0.8
C[C@H](CO)N1C[C@H](C)[C@H](CN(C)Cc2ccccc2)Oc2ccc(NC(=O)Cc3ccccc3)cc2CC1=O | 36.5[16.7 µM] | -20.5
C[C@@H]1CN([C@H](C)CO)C(=O)c2cc(NC(=O)Nc3ccc4c(c3)OCO4)ccc2O[C@@H](C)CCCCO[C@@H]1CN(C)S(=O)(=O)c1ccc(Cl)cc1 | -21.7[16.7 µM] | -11.1
O=C(CN1CCOCC1)NCC[C@H]1CC[C@H](NC(=O)Nc2ccccc2)[C@H](CO)O1 | -10.4[16.7 µM] | 8.8
Cc1ccc(S(=O)(=O)Nc2ccc3c(c2)C(=O)N([C@H](C)CO)C[C@H](C)[C@@H](CN(C)S(=O)(=O)c2cccs2)OCCCC[C@H](C)O3)cc1 | -24.1[16.7 µM] | -10.2
O=C(C[C@H]1C[C@H]2c3cc(NC(=O)Nc4ccc(C(F)(F)F)cc4)ccc3O[C@H]2[C@@H](CO)O1)NCc1ccc2c(c1)OCO2 | -8.6[16.7 µM] | -15.2
O=C(Nc1ccc(Cl)cc1)N[C@H]1CC[C@@H](CCNC(=O)c2ccccc2F)O[C@H]1CO | 4.5[16.7 µM] | 3.1
CCCC#Cc1ccc2c(c1)O[C@H](CN(C)C(=O)CN(C)C)[C@@H](C)CN([C@@H](C)CO)S2(=O)=O | 3.7[16.7 µM] | 26.2
CNC[C@H]1Oc2c(NS(=O)(=O)c3ccc(F)cc3)cccc2C(=O)N([C@@H](C)CO)C[C@@H]1C | -2.0[16.7 µM] | -10.0
CC(C)C#Cc1ccc([C@@H]2[C@@H](CO)N(C(=O)C3CCOCC3)[C@H]2C#N)cc1 | -17.2[16.7 µM] | -10.6
O=C(N[C@H]1CC[C@H](CCNS(=O)(=O)c2ccc(F)cc2)O[C@H]1CO)c1ccccn1 | -20.6[16.7 µM] | -3.8
CN1CCN(C(=O)C[C@H]2C[C@@H]3c4cc(NC(=O)Nc5ccccc5)ccc4O[C@@H]3[C@H](CO)O2)CC1 | -1.6[16.7 µM] | 18.1
C[C@H](CO)N1C[C@H](C)[C@@H](CN(C)S(=O)(=O)c2cn(C)cn2)Oc2ncc(/C=C/c3ccccc3)cc2C1=O | 19.4[16.7 µM] | -8.4
O=C(C[C@H]1C=C[C@H](NC(=O)Nc2ccc(C(F)(F)F)cc2)[C@@H](CO)O1)NCc1ccccn1 | -7.8[16.7 µM] | 0.7
C[C@@H]1CN([C@H](C)CO)C(=O)c2cc(C#Cc3cccc(F)c3)cnc2O[C@H]1CN(C)CC1CCCC1 | 2.2[16.7 µM] | 1.0
O=C(C[C@@H]1C[C@@H]2c3cc(NC(=O)Nc4ccccc4)ccc3O[C@@H]2[C@H](CO)O1)NC1CCCCC1 | 32.5[16.7 µM] | -7.5
C[C@@H]1CCCCO[C@H](CN(C)S(=O)(=O)c2ccccc2)[C@H](C)CN([C@H](C)CO)C(=O)c2cc(NS(=O)(=O)c3ccc(Cl)cc3)ccc2O1 | 39.8[16.7 µM] | -1.2
Cc1ccccc1S(=O)(=O)NCC[C@H]1CC[C@H](NC(=O)C2CCCC2)[C@@H](CO)O1 | -3.7[16.7 µM] | 3.7
COc1ccc(NC(=O)Nc2ccc3c(c2)CC(=O)N([C@@H](C)CO)C[C@@H](C)[C@@H](CN(C)C(=O)Nc2ccc(C(F)(F)F)cc2)O3)cc1 | -17.8[16.7 µM] | 14.1
C[C@@H]1CN([C@@H](C)CO)C(=O)c2cc(C3=CCCC3)cnc2O[C@@H]1CN(C)C(=O)c1ccc(F)cc1 | 22.2[16.7 µM] | 73.9
COc1ccc(-c2cnc3c(c2)C(=O)N([C@@H](C)CO)C[C@@H](C)[C@@H](CN(C)C(=O)Cc2ccccc2)O3)cc1 | -3.1[16.7 µM] | -2.4
CN(C)C(=O)C[C@@H]1C[C@@H]2c3cc(NC(=O)NC4CCCCC4)ccc3O[C@@H]2[C@@H](CO)O1 | 22.9[16.7 µM] | 7.7
CC(C)NC(=O)Nc1ccc2c(c1)C(=O)N(C)[C@H]1CC[C@H](CC(=O)NC3CCCCC3)O[C@H]1CO2 | -22.3[16.7 µM] | 23.6
C[C@H](CO)N1C[C@H](C)[C@@H](CN(C)Cc2ccc(Oc3ccccc3)cc2)Oc2ccc(NC(=O)Nc3cccc4ccccc34)cc2C1=O | -6.5[16.7 µM] | -13.1
CCC(=O)N(C)C[C@H]1Oc2cc(-c3cccc(OC)c3)ccc2S(=O)(=O)N([C@@H](C)CO)C[C@H]1C | 3.0[16.7 µM] | 6.8

Reprinted from the part before: 5 compounds, followed by the next part.
SMILES | Env fusion inh | Yeast UUG start
COc1ccc(-c2cnc3c(c2)C(=O)N([C@@H](C)CO)C[C@@H](C)[C@@H](CN(C)C(=O)Cc2ccccc2)O3)cc1 | -3.1[16.7 µM] | -2.4
CN(C)C(=O)C[C@@H]1C[C@@H]2c3cc(NC(=O)NC4CCCCC4)ccc3O[C@@H]2[C@@H](CO)O1 | 22.9[16.7 µM] | 7.7
CC(C)NC(=O)Nc1ccc2c(c1)C(=O)N(C)[C@H]1CC[C@H](CC(=O)NC3CCCCC3)O[C@H]1CO2 | -22.3[16.7 µM] | 23.6
C[C@H](CO)N1C[C@H](C)[C@@H](CN(C)Cc2ccc(Oc3ccccc3)cc2)Oc2ccc(NC(=O)Nc3cccc4ccccc34)cc2C1=O | -6.5[16.7 µM] | -13.1
CCC(=O)N(C)C[C@H]1Oc2cc(-c3cccc(OC)c3)ccc2S(=O)(=O)N([C@@H](C)CO)C[C@H]1C | 3.0[16.7 µM] | 6.8
COc1ccc(NC(=O)N(C)C[C@H]2Oc3ccc(NC(=O)NC4CCCCC4)cc3C(=O)N([C@H](C)CO)C[C@H]2C)cc1 | 23.7[16.7 µM] | 0.2
C[C@@H]1CN([C@H](C)CO)C(=O)c2cc(NC(=O)CCC(F)(F)F)ccc2O[C@@H](C)CCCCO[C@H]1CN(C)S(=O)(=O)c1ccccc1 | 2.4[16.7 µM] | 9.4
C[C@@H]1CN([C@@H](C)CO)C(=O)c2cc(C#CCN(C)C)cnc2O[C@@H]1CN(C)Cc1ccc(-c2ccccc2)cc1 | 1.4[16.7 µM] | 7.1
Cc1ccc(-c2ccc3c(c2)O[C@H](CN(C)C(=O)Nc2ccc(F)cc2)[C@H](C)CN([C@H](C)CO)S3(=O)=O)cc1 | -18.1[16.7 µM] | -8.4
O=C(OC[C@@H]1[C@H]2c3ccccc3OC1(CO)N=C1SCc3ccccc3CN12)c1ccccc1 | 16.0[16.7 µM] | -16.1
CO[C@H]1CN(C)C(=O)c2ccc(NC(=O)Nc3ccccc3)cc2OC[C@H](C)N(C(=O)CC2CC2)C[C@H]1C | 18.2[16.7 µM] | 1.4
COc1ccccc1NC(=O)N[C@@H]1C=C[C@H](CC(=O)NCc2ccc(Cl)c(Cl)c2)O[C@@H]1CO | 74.1*[16.7 µM] | -1.6
C[C@@H]1CCCCO[C@H](CN(C)C(=O)Nc2ccc(F)cc2)[C@@H](C)CN([C@@H](C)CO)C(=O)c2cc(NC(=O)NC3CCCCC3)ccc2O1 | -18.3[16.7 µM] | -9.9
C[C@H](CO)N1C[C@H](C)[C@H](CN(C)Cc2ccc(C(=O)O)cc2)OCCCC[C@H](C)Oc2ccc(NC(=O)C3CCCCC3)cc2C1=O | 20.3[16.7 µM] | 11.8
COc1ccc(CN(C)C[C@H]2Oc3ccc(NC(=O)Nc4ccccc4)cc3C(=O)N([C@@H](C)CO)C[C@H]2C)cc1 | 6.6[16.7 µM] | 0.4
CO[C@@H]1CN(C)C(=O)c2ccc(NC(C)=O)cc2OC[C@H](C)N(C(=O)CC2CC2)C[C@H]1C | -0.9[16.7 µM] | -4.4
COCC#Cc1cnc2c(c1)C(=O)N([C@H](C)CO)C[C@H](C)[C@@H](CN(C)C(=O)Cc1cccnc1)O2 | -3.7[16.7 µM] | 12.5
CNC(=O)C[C@H]1CC[C@H]2[C@H](COc3ccc(NC(=O)Nc4ccc(Cl)cc4)cc3C(=O)N2C)O1 | 18.7[16.7 µM] | 10.9
C[C@H](CO)N1C[C@H](C)[C@H](CN(C)S(=O)(=O)c2ccc(Cl)cc2)OCCCC[C@H](C)Oc2ccc(NS(=O)(=O)c3ccc(Cl)cc3)cc2C1=O | -123.2[16.7 µM] | -12.3
CCCC#Cc1ccc2c(c1)O[C@@H](CN(C)C(=O)CN(C)C)[C@H](C)CN([C@@H](C)CO)S2(=O)=O | 6.9[16.7 µM] | 3.0
Cc1noc(C)c1NC(=O)N(C)C[C@@H]1OCCCC[C@H](C)Oc2ccc(N(C)C)cc2C(=O)N([C@H](C)CO)C[C@@H]1C | -15.0[16.7 µM] | -3.9
COCC(=O)Nc1ccc2c(c1)C(=O)N(C)C[C@@H](OC)[C@@H](C)CN(C(=O)COC)[C@H](C)CO2 | 9.4[16.7 µM] | -1.6
O=C(C[C@@H]1C=C[C@@H](NC(=O)c2cccc(F)c2)[C@H](CO)O1)NCc1ccccc1 | -5.4[16.7 µM] | -3.9
Cc1noc(C)c1NC(=O)Nc1ccc2c(c1)C(=O)N([C@@H](C)CO)C[C@H](C)[C@@H](CN(C)C(=O)CCCN(C)C)OCCCC[C@@H](C)O2 | -17.3[16.7 µM] | 15.7
COc1ccc(NC(=O)N(C)C[C@@H]2Oc3ncc(C#CCN(C)C)cc3C(=O)N([C@H](C)CO)C[C@@H]2C)cc1 | -27.3&-28.0[16.7 µM] | 30.3&5.2
CO[C@H]1CN(C)C(=O)c2cc(NC(=O)Nc3ccc(Cl)cc3)ccc2OC[C@@H](C)N(C)C[C@H]1C | 3.4[16.7 µM] | 1.0
Cc1noc(C)c1S(=O)(=O)N(C)C[C@@H]1OCCCC[C@@H](C)Oc2ccc(NC(=O)NC(C)C)cc2C(=O)N([C@H](C)CO)C[C@@H]1C | 2.8[16.7 µM] | -7.4
COC(=O)C[C@H]1CC[C@@H]2[C@@H](COc3ccc(NC(=O)Nc4cccc(C)c4)cc3C(=O)N2C)O1 | 28.0[16.7 µM] | -0.9
CNC[C@H]1Oc2ccc(NC(=O)c3ccncc3)cc2C(=O)N([C@@H](C)CO)C[C@@H]1C | -12.1[16.7 µM] | 1.4
COc1cccc(S(=O)(=O)N[C@@H]2C=C[C@@H](CC(=O)NC3CCC3)O[C@H]2CO)c1 | -8.8[16.7 µM] | 0.1
New compounds follow:
SMILES | Env fusion inh | Yeast UUG start
C[C@@H]1CN([C@H](C)CO)S(=O)(=O)c2ccc(-c3cccc(C(=O)N(C)C)c3)cc2O[C@H]1CN(C)C(=O)Nc1ccccc1 | -36.1[16.7 µM] | 5.7
Cc1ccccc1S(=O)(=O)NCC[C@H]1CC[C@H](NC(=O)Nc2cccc(F)c2)[C@H](CO)O1 | 3.2[16.7 µM] | 16.9
C[C@H](CO)N1C[C@H](C)[C@@H](CN(C)C(=O)Nc2ccc(C(F)(F)F)cc2)Oc2ccc(NC(=O)Nc3ccc(F)cc3)cc2CC1=O | -9.0[16.7 µM] | -9.8
COc1ccccc1-c1cnc2c(c1)C(=O)N([C@H](C)CO)C[C@@H](C)[C@H](CN(C)C(=O)CC1CC1)O2 | 4.0[16.7 µM] | 19.4
C[C@H](CO)N1C[C@H](C)[C@H](CN(C)C(=O)CN2CCOCC2)Oc2ncc(C#CCN(C)C)cc2C1=O | 5.2[16.7 µM] | -7.8
C/C=C/c1ccc2c(c1)O[C@@H](CN(C)C(=O)CN1CCOCC1)[C@H](C)CN([C@H](C)CO)S2(=O)=O | -9.7[16.7 µM] | 20.3
C[C@@H]1CN([C@H](C)CO)C(=O)Cc2cc(NS(=O)(=O)c3cccs3)ccc2O[C@H]1CN(C)Cc1ccc(Oc2ccccc2)cc1 | -9.0[16.7 µM] | 13.3
O=C(Nc1ccccc1O)C1=C[C@H](c2coc3ccccc3c2=O)C[C@H](OCCCCO)O1 | -0.9[16.7 µM] | 8.2
COc1ccc(NC(=O)N(C)C[C@H]2OCCCC[C@@H](C)Oc3ccc(NS(=O)(=O)c4ccc(OC)cc4)cc3C(=O)N([C@@H](C)CO)C[C@H]2C)cc1 | -49.1[16.7 µM] | 3.3
O=C(Cc1ccccn1)N[C@H]1C=C[C@@H](CC(=O)N2CCCCC2)O[C@H]1CO | 12.1[16.7 µM] | -9.2
Cc1noc(C)c1NC(=O)N(C)C[C@@H]1OCCCC[C@H](C)Oc2ccc(N(C)C)cc2C(=O)N([C@H](C)CO)C[C@H]1C | -5.8[16.7 µM] | 16.4
C[C@@H]1CCCCO[C@H](CN(C)S(=O)(=O)c2cccs2)[C@@H](C)CN([C@H](C)CO)C(=O)c2cc(NC(=O)c3ccccc3)ccc2O1 | 18.3[16.7 µM] | 10.9
C[C@@H]1CCCCO[C@@H](CN(C)C(=O)Nc2cccc3ccccc23)[C@@H](C)CN([C@H](C)CO)C(=O)c2cc(NC(=O)Nc3ccc4c(c3)OCO4)ccc2O1 | -27.4[16.7 µM] | -9.2
C[C@@H]1CCCCO[C@H](CN(C)Cc2ccc(C(=O)O)cc2)[C@@H](C)CN([C@@H](C)CO)C(=O)c2cc(NC(=O)Cc3ccccc3)ccc2O1 | -4.1[16.7 µM] | -12.1
O=C(C[C@@H]1CC[C@@H](NC(=O)NC2CCCCC2)[C@@H](CO)O1)NCc1ccc(Cl)cc1 | 12.3[16.7 µM] | 1.1
O=C(Nc1ccc(F)cc1)N[C@H]1CC[C@H](CC(=O)N2CCCCC2)O[C@H]1CO | -14.6[16.7 µM] | -6.7
C[C@@H]1CN([C@@H](C)CO)C(=O)c2cc(NC(=O)Nc3ccc4c(c3)OCO4)ccc2O[C@@H](C)CCCCO[C@H]1CN(C)C(=O)Cc1ccccc1 | 33.9[16.7 µM] | -21.6
COCC#Cc1cnc2c(c1)C(=O)N([C@@H](C)CO)C[C@@H](C)[C@H](CN(C)C(=O)c1ccc3c(c1)OCO3)O2 | -2.1[16.7 µM] | -0.2
O=C(N[C@H]1CC[C@H](CCNC(=O)c2ccccc2F)O[C@H]1CO)c1cnccn1 | 8.6[16.7 µM] | -2.2

An excerpt, so the mix of outcomes need not match the whole.
